# TAR Tat displ: TAR RNA-Tat peptide displacers, HIV-1, primary screen, biochemical, FRET, FAM/TAMRA-labeled Tat. HIV-1 TAR RNA, Tat peptide displacement FRET; hits give high values. z-score (concentration not given with the values). actives 0.6% (n = 100,000). AID 1259389, 2018;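 also: score is relative to mean and SD of negative controls; some compounds called inactive have numbers as strong as hits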
# CDC25B CDK2 inh: primary biochemical HTRF screen for blockers of M-phase inducer phosphatase 2 binding to CDK2/cyclin A | P30305+P24941 | HTRF CDC25B-CDK2/CyclinA binding, anti-His/anti-Flag; hits give high values | z-score (test concentration not listed) | actives 0.72% (n = 94,000);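 also: score is relative to mean and SD of negative controls; strong numbers were not always called active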
# * hit, by the source's call; nt = not tested or not shown.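 The calls were made as follows: active = z-score from 3 up in half or more of its runs; inactive = the rest.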
# A first look (3 entries):
# Fields: TAR Tat displ, CDC25B CDK2 inh
- COc1ccc(-c2c3c(=O)n(C)c(=O)n(C)c3c3n2-c2ccccc2NC3c2cc(O)ccc2O)cc1 (stereo not drawn)
    21*, -1.8
- COc1cc(OC)cc(N2CCN(S(=O)(=O)c3ccc(-n4cnnn4)cc3)CC2)c1
    0.19, -4.1
- COc1ccc(-c2cnc(C)o2)cc1S(=O)(=O)Nc1cc(F)ccc1F
    0.91, nt

# Main list, repeating the preview:
# Fields: TAR Tat displ, CDC25B CDK2 inh
- COc1ccc(-c2c3c(=O)n(C)c(=O)n(C)c3c3n2-c2ccccc2NC3c2cc(O)ccc2O)cc1 (stereo not drawn)
    21*, -1.8
- COc1cc(OC)cc(N2CCN(S(=O)(=O)c3ccc(-n4cnnn4)cc3)CC2)c1
    0.19, -4.1
- COc1ccc(-c2cnc(C)o2)cc1S(=O)(=O)Nc1cc(F)ccc1F
    0.91, nt
- CCS(=O)(=O)c1ncc(Cl)c(C(=O)Nc2nc3ccc(Cl)cc3s2)n1
    3, -3.5
- Cc1ccc(C2CC(C(F)(F)F)n3nc(C(=O)N(C)C4CCCCC4)cc3N2)cc1 (stereo not drawn)
    1.6, -1.1
- CC1CCCCC1NS(=O)(=O)c1cccc(N)c1 (stereo not drawn)
    0.71, -2.4
- O=C(CSc1nnc(Cn2c(=O)sc3ccccc32)n1CCc1ccccc1)N1CCCCC1
    -0.04, -1.9
- CC1CCc2onc(C(=O)NC3=NN(c4ccccc4)CC3)c2C1 (stereo not drawn)
    0.43, nt
- CCCNC(=O)c1cnc(N2CCN(CC)CC2)nc1C
    1.5, nt
- Cc1cc2nc(Nc3ncc4c(n3)CC(c3cccs3)CC4=O)nc(C)c2cc1C (stereo not drawn)
    -9.3, -0.78
- Cn1c(=O)c(=O)n(C)c2cc(N3CCCCC3)c(NS(C)(=O)=O)cc21
    0.47, nt
- COc1ccc(OC)c(C2C3=C(CCCC3=O)Nc3nc4ccccc4n32)c1 (stereo not drawn)
    nt, -1
- Cc1n[nH]c(=O)nc1NCCCN(C)C
    2.1, -0.6
- FC(F)(F)c1ccc(-n2nnnc2-c2ccno2)cc1
    nt, -0.81
- CC1CCC(NC(=O)C2CCN(S(=O)(=O)c3cnc[nH]3)CC2)CC1 (stereo not drawn)
    0.59, 0.72

# The final 6 records of the part before come first, to join the parts.
# Fields: TAR Tat displ, CDC25B CDK2 inh
- Cc1cc2nc(Nc3ncc4c(n3)CC(c3cccs3)CC4=O)nc(C)c2cc1C (stereo not drawn)
    -9.3, -0.78
- Cn1c(=O)c(=O)n(C)c2cc(N3CCCCC3)c(NS(C)(=O)=O)cc21
    0.47, nt
- COc1ccc(OC)c(C2C3=C(CCCC3=O)Nc3nc4ccccc4n32)c1 (stereo not drawn)
    nt, -1
- Cc1n[nH]c(=O)nc1NCCCN(C)C
    2.1, -0.6
- FC(F)(F)c1ccc(-n2nnnc2-c2ccno2)cc1
    nt, -0.81
- CC1CCC(NC(=O)C2CCN(S(=O)(=O)c3cnc[nH]3)CC2)CC1 (stereo not drawn)
    0.59, 0.72
- O=C(Nc1ccc(C(F)(F)F)cc1Cl)c1ccc(F)cc1
    nt, -2.3
- COc1ccc(-c2cn3ccccc3c2S(=O)(=O)c2ccc(F)cc2)cc1OC
    -2.5, nt
- COc1ccccc1-c1noc2ncnc(NCc3ccc4c(c3)OCO4)c12
    0.41, nt
- COCCNC(=O)C1=CC(c2cccs2)=NS(=O)(=O)N1C
    1.4, -1.4
- CC1CCCCN1C(=O)NC1(C(F)(F)F)Oc2ccccc2O1 (stereo not drawn)
    nt, 0.2
- CN(C)c1ccc(N2CC(C(=O)O)CC2=O)cc1 (stereo not drawn)
    0.59, -1.7
- CCC(C)NC(=O)c1onc(C)c1Cl (stereo not drawn)
    0.77, -2.1
- Cc1ccsc1CCNS(=O)(=O)c1csc(C(N)=O)c1
    1.6, nt
- COc1ccc(C2CC(c3ccc(NS(C)(=O)=O)cc3)=NN2S(=O)(=O)c2ccc(C)cc2)cc1 (stereo not drawn)
    -3.2, nt
- CCOc1ccc(NC(=O)C(C)Sc2cc(C)nc(C)n2)cc1 (stereo not drawn)
    -0.67, -1.8
- CCc1nn(CC(=O)N2CCc3ccccc3C2)c(=O)c2cccn12
    1.7, -1.1
- CC(CCc1ccco1)NC(=O)C1CCN(c2cnccn2)CC1 (stereo not drawn)
    -0.12, -1.1
- CN1CCN(C(=O)CCc2nc(CS(=O)(=O)c3ccccc3)no2)CC1
    1.3, nt
- Cn1c(=O)c2sccc2n2c(CCCC(=O)Nc3cccc(F)c3)nnc12
    3, -1
- CCOC(=O)N1CCN(C(=O)C2CCN(c3nnc(-n4cccc4)s3)CC2)CC1
    0.4, -1.4
- COc1ccc(C(=O)c2ccccc2O)c(O)c1
    0.87, nt
- CC(C)(C)n1nc2c(c1NC(=O)c1ccc(S(=O)(=O)N3CCCCC3)cc1)CS(=O)(=O)C2
    -0.19, nt
- O=C(CSc1nc2c(cnn2-c2ccc(F)cc2)c(=O)[nH]1)N1CCc2ccccc21
    nt, -0.68
- CCCC(=O)Nc1ncnc2c1ncn2C1O[C@@H]2COP(=O)(O)O[C@H]2[C@H]1OC(=O)CCC (stereo partly drawn)
    -0.76, nt
- C=CCNc1ncnc2c1c(-c1ccccc1)cn2-c1cccc(Cl)c1
    nt, -0.12
- Cc1c(C(=O)NCC2COc3ccccc3O2)oc2ccc(S(=O)(=O)N3CC(C)CC(C)C3)cc12 (stereo not drawn)
    -0.21, -0.45
- Cc1cn2c(nc1=O)O[C@@H]1C[C@H]2O[C@@H]1CO
    nt, -2
- COc1ccc(/C=C2/C(=O)N(c3cccc(Cl)c3)N=C2C)cc1
    nt, -0.67
- Cc1cc2nc(CSCC(=O)Nc3ccccc3Cl)cc(=O)n2o1
    0.96, nt
- O=C(Nc1nnc(-c2ccc3c(c2)OCCO3)o1)c1ccc2c(c1)OCCO2
    0.49, nt
- COc1ccc(C2/C(=C(\O)c3ccc(Cl)cc3)C(=O)C(=O)N2CCN(C)C)cc1 (stereo not drawn)
    1.9, -1.9
- Cc1c(Cc2ccc(Cl)cc2)c(=O)n2c([nH]c3ccccc32)c1C#N
    nt, -0.22
- O=C(COCc1cc(-c2ccco2)on1)N1CCc2ccccc21
    0.3, nt
- CN(C)CCCN(C(=O)c1ccc(Br)cc1)c1nc2ccc(F)cc2s1
    0.61, nt
- CC(C)CCNC(=O)C1CCN(C(=O)c2cc3sccc3n2C)CC1
    1.4, 0.77
- Cc1cc(C)c(-n2nnnc2SCCn2c([N+](=O)[O-])cnc2C)c(C)c1
    nt, -0.83
- O=C(Nc1ccccn1)c1c(O)c2c([nH]c1=O)CCCC2
    0.73, nt
- O=S(=O)(CCOc1ccccc1)c1nc2ccccc2[nH]1
    nt, -2.6
- O=[N+]([O-])c1cnc(Sc2nccc(-c3cccnc3)n2)s1
    nt, -1.7
- CCS(=O)(=O)N1CCC(N2CCOCC2)CC1
    0.94, nt
- Cc1nnc(NC(=O)CSc2ccc(-c3sc(C)nc3C)nn2)s1
    0.82, nt
- NC(=Nc1ccccc1)SCc1ccc([N+](=O)[O-])cc1
    nt, -1.6
- O=C(c1ccc(N2C(=O)CCS2(=O)=O)cc1)N1CCCC1
    0.75, -0.2
- O=C(NCCC1=CCCCC1)c1cn2c3c(ccc(Cl)c3c1=O)OCC2
    1.9, nt
- C=CCn1c(N)c(C(=O)NCc2cccnc2)sc1=S
    -1.1, -0.81
- O=C1CC(c2cccs2)CC2=C1C(c1cc(=O)c3cc(Cl)ccc3o1)Nc1ccccc1N2 (stereo not drawn)
    nt, -1.9
- O=C(COC(=O)c1ccccc1N1C(=O)C2C3C=CC(C4CC34)C2C1=O)c1cccs1 (stereo not drawn)
    nt, -6.1
- CNc1nc(Oc2ccccc2C(=O)OC)nc(SC)n1
    nt, -0.73
- CCOC(=O)C1CCN(C(=O)C2CCN(S(=O)(=O)c3cnc[nH]3)CC2)CC1
    0.66, 0.91
- Cc1c(NC(=O)CSc2nnc3ccc4ccccc4n23)c(=O)n(-c2ccccc2)n1C
    -0.19, -0.11
- Cc1ccc2nc(-c3ccccn3)c(NC3CCCC3)n2c1
    -0.71, -0.2
- Cc1nc2ccc(S(=O)(=O)NC(CC(C)C)C(=O)NCCC3=CCCCC3)cc2s1 (stereo not drawn)
    -1.1, -1.1
- Cc1ccc(C2Nn3c(C)nnc3SC2C(=O)NCC2CCCO2)cc1 (stereo not drawn)
    0.04, -1.2
- COC(=O)/C(=C/c1cc(C)c(C)o1)S(C)(=O)=O
    nt, -0.14
- CCc1c(C(=O)NC2CCCc3ccccc32)[nH]c(C)c1C(C)=O (stereo not drawn)
    nt, -1.6
- O=C(Nc1ccc2nc3n(c(=O)c2c1)CCCCC3)C(=O)N1CCN(c2ncccn2)CC1
    nt, -0.77
- Cc1cc(C)cc(Nc2c3c(nc4ncnn24)CCCC3)c1
    0.3, nt
- Cc1ccc(N2CCN(c3cnn(-c4nc5ccccc5s4)c(=O)c3N(C)C)CC2C)cc1 (stereo not drawn)
    -0.03, 1.2
- CC1(C)CC(=O)C=C(Sc2nc3ccccc3o2)C1
    nt, -2.1
- CCOc1ccc(CCN=C2NS(=O)(=O)C(c3ccc(C)cc3)=C2C)cc1OCC
    -1.5, -0.89
- C=CCN1C(=O)C(O)(CC(=O)c2ccc(OC)c(OC)c2)c2ccccc21 (stereo not drawn)
    -0.41, -0.68
- CCOC(=O)c1c(NC(=O)Cn2nc([N+](=O)[O-])cc2C)sc(C)c1C
    nt, 0.07
- O=C(CSc1nc2ccccc2c(=O)n1Cc1ccco1)NCc1ccco1
    0.83, nt
- CCc1ccccc1NS(=O)(=O)c1cc(-c2cc(C)no2)ccc1CC
    0.72, nt
- N#C/C(N=Cc1ccc(Cl)cc1)=C(\C#N)NC(=O)Nc1ccc(OC(F)(F)F)cc1
    nt, -2

# Further records.
# Fields: TAR Tat displ, CDC25B CDK2 inh
- O=C(CN1C(=O)CSc2ccc(S(=O)(=O)N3CCOCC3)cc21)NCC1CCCO1 (stereo not drawn)
    nt, -1.8
- CC(C)(C)C(=O)Nc1ccc(S(=O)(=O)Nc2nccs2)cc1
    nt, -1.5
- C=CCOC(=O)C1=C(C)NC2=C(C(=O)CC(C)(C)C2)C1c1ccc(C(=O)OC)cc1 (stereo not drawn)
    2.1, 0.93
- S=C(NCc1cccnc1)NNC(=S)NNc1ccccc1
    nt, -2.9
- Brc1cccc(-c2nnc3sc(CN4CCc5ccccc5C4)cn23)c1
    nt, -1.5
- CC1Cc2nc(SCC(=O)Nc3nccs3)n(C)c(=O)c2S1 (stereo not drawn)
    3.5, -1.8
- Cc1c(N2CCN(C(=O)c3cc(-c4ccco4)nc4ccccc34)CC2)c(=O)n(C)c(=O)n1C
    0.51, nt
- O=C(CN1CCN(c2ccc(Cl)cc2)CC1)c1ccc2c(c1)OCO2
    nt, 0.94
- CC(C)c1ccc(S(=O)(=O)c2cc3ccccc3oc2=O)cc1
    nt, -2.4
- CCn1c(C(=O)N2CCC(C(=O)NCCCN3CCCC3)CC2)cc2sccc21
    -1.9, -0.47
- CCc1ccc(-c2[nH]nc3nc(-c4ccc(O)cc4)cc(C(=O)O)c23)cc1
    1.8, nt
- COc1ccccc1N1CCN(C(=O)c2cn(C3CCCC3)c(=O)c3c2c2ccccc2n3C)CC1
    1.8, -0.62
- Cc1noc2ncnc(N3CCC(C(=O)NCCN4CCCCC4C)CC3)c12 (stereo not drawn)
    2.6, nt
- Cc1cc(C)cc(S(=O)(=O)c2cn(C)c3cc(N4CCCC(C)C4)c(F)cc3c2=O)c1 (stereo not drawn)
    0.82, nt
- COc1ccc(Nc2nc(N3CC(C)OC(C)C3)nc3c2cnn3C)cc1Cl (stereo not drawn)
    0.78, nt
- O=C(CSC1=Nc2ccccc2C2=NC(c3ccccc3)C(=O)N12)Nc1cccc(Cl)c1 (stereo not drawn)
    nt, -2.4
- CC(=O)N1CCCC1c1nc2ccccc2[nH]1 (stereo not drawn)
    1.2, -0.06
- Cn1c(=O)c(=O)n(C)c2cc(S(=O)(=O)CCC(=O)NCC3CCCO3)ccc21 (stereo not drawn)
    1.2, -0.26
- CN(C(=O)CSc1nc2ncccc2[nH]1)c1ccccc1
    0.15, nt
- CN(CC(=O)Nc1nccs1)S(=O)(=O)c1ccc2[nH]c(=O)oc2c1
    -4.1, nt
- COc1ccc(C2C(C#N)=C3N=C(N)c4ccccc4N3C3=C2C(=O)CCC3)cc1OC (stereo not drawn)
    -6, -1.2
- Cc1nc(-c2ccc(C)c(S(=O)(=O)NCCC(C)C)c2)cs1
    1.8, nt
- CCOC(=O)N1CCN(C(=O)C2CCN(c3ncnc4c3sc3cccc(F)c34)CC2)CC1
    -1.1, -1.7
- CCOC(=O)CNC(=O)c1sc2ncnc(N3CCCCC3C)c2c1C (stereo not drawn)
    nt, -2
- N#Cc1c(-c2ccco2)cc(C2CC2)nc1SCC(=O)c1ccccc1
    nt, -25
- Cc1cc(=O)[nH]c(SCc2nc3ncccn3c2Br)n1
    nt, -0.1
- CCCCN(CCS(=O)(=O)N1CCNCC1)S(=O)(=O)c1cc(C)ccc1C
    0.73, nt
- O=C(CN1C(=O)c2cccnc2Sc2ccccc21)NC1CCCC1
    -1.2, nt
- COCCNc1cc(N2CCN(c3ccc(F)cc3)CC2)c2noc3c2c1C(=O)c1ccccc1-3
    1.7, 2.4
- O=S(=O)(Nc1ccc(S(=O)(=O)N2CCOCC2)cc1)c1ccc(Br)cc1
    nt, 2.9
- COc1ccc(NC(=O)CN2N=NC3C(=O)N(c4ccc(F)c(Cl)c4)C(=O)C32)c(OC)c1 (stereo not drawn)
    0.07, nt
- Cc1ccc2nc(COc3ccc(F)cc3)[nH]c2c1
    0.55, -1.9
- Cc1ccc(-c2cc(C(F)(F)F)nn2-c2ccc(S(N)(=O)=O)cc2)cc1
    1.1, -1.7
- Cn1c(COc2ccccc2)nc2ccccc21
    0.28, -0.96
- CCOC(=O)CN1C(=O)/C(=C\c2ccc(C)o2)N=C1c1ccccc1
    nt, -1.1

# High-throughput results (PubChem)
